PKD1 kinase inh = inhibitors of human PKD1 kinase; AID 797; PKD1 kinase fluorescence polarization assay; 200,000 tested, 0.056% active; inhibition, %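 (about 10 µM by stock and volumes)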;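 active means inhibition of 50% or more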;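 further: controls were vehicle for no effect and a reference inhibitor for full effect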
Target sequence (Q15139 whole entry, looked up): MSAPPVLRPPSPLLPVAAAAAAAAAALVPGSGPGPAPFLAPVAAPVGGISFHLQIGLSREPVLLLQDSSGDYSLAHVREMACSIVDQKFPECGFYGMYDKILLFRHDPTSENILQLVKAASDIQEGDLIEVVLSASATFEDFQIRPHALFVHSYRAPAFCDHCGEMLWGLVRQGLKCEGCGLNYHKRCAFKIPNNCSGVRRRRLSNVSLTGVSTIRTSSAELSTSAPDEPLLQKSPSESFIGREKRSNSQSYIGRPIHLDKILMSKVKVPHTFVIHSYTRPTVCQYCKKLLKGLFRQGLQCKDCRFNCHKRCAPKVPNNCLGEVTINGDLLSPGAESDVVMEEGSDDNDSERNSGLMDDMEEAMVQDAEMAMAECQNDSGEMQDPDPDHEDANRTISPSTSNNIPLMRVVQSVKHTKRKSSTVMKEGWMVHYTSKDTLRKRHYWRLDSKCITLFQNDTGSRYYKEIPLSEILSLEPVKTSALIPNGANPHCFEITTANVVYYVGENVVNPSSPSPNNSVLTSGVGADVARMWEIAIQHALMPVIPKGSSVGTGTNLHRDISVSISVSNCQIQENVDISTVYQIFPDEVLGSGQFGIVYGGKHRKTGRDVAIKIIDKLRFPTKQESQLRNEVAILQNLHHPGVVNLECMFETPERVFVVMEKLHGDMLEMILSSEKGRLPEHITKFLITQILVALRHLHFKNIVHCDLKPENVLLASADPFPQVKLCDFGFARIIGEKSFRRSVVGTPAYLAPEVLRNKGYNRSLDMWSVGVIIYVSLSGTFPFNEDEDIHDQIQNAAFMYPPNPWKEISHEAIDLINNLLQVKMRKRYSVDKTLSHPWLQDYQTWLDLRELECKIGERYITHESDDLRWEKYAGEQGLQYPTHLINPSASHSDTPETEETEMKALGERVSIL
RGS16-Gao HTS = modulates binding between human RGS16 and Galphao | 220,000 tested, 0.38% active | bead-based flow cytometry RGS16-Galphao binding, fluorescence; actives lie on both sides | binding response (% of control), % at 10 µM;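 active means below 25% or above 175%, edge rows of some plates excepted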;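 further: Galphao activated by GDP with aluminum fluoride before binding; 100% = wells without compound and 0% = beads without RGS; some results beyond the cut were filed as inactive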
Insulin prom inh = TRM-6 insulin promoter activity inhibition; TRM-6 cells (human fetal islet line), insulin promoter-eGFP reporter, imaging; reporter expression induced with tamoxifen; 130,000 tested, 0.9% active; inhibition, % at 2 µM; AID 1273;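 active means inhibition above the mean plus 3 SD, with well images judged a real hit on visual review, cut at about 60% in these data, passing the limit was not always enough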
HSV augment = increases HSV replication in cells | maximum fold increase | HSV replication augmentation in cells, fold increase | 220,000 tested, 0.005% active;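 active means peak rise of 1.5-fold or more in the series; tested in PC3 cells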;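 further: first round at 10 µM; read as green reporter fluorescence; hits show the peak of a series up to 25 µM; 1 = signal of infected wells without compound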
GALR2 agonist = GALR2 (human) receptor agonism; GALR2-expressing cells, agonist activation read-out; activation, %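 (tested at 5 µM)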; 140,000 tested, 0.48% active; AID 803;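 active means above mean plus 3 SD of all compounds, about 5% in these data, not always enough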;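 further: 0% = vehicle buffer wells and 100% = reference agonist at full effect; tested in CHO reporter cells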
Insulin prom inh cell count = further read-out of Insulin prom inh, marked with its call; normalized cell count, %; measured here: cell count, toxicity; reference of the scale not given here;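 cells exposed to compound for 48 h; stained nuclei by imaging scaled within each plate; lower means fewer cells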
HSV augment primary fold = second read-out of HSV augment, no call of its own (marks repeat the call); fold increase; compound at 10 µM; measured here: primary screen fold increase 10 uM; tested in PC3 cells;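 GFP signal in the first replicate; 1 = infected wells without compound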
* marks the source's active call; other numbers are inactive results; i = inactive; · = no result given. Rows are unselected; any-hit rate near 1.1%.

Every second line gives: PKD1 kinase inh	RGS16-Gao HTS	Insulin prom inh	Insulin prom inh cell count	HSV augment	HSV augment primary fold	GALR2 agonist
> C/C(=N\NC(=O)OC(C)(C)C)c1ccccc1Br
  -7	115	·	·	i	0.98	·
> COc1ccc(N2CCN(C(=O)CN(C)S(=O)(=O)c3ccc4c(c3)c(=O)n(C)c(=O)n4C)CC2)cc1
  -2	92	43	106	i	1.1	·
> COc1ccc(CNC(=O)CCSCc2ccccc2C)cc1
  -6	102	·	·	i	0.9	·
> Cc1ccc(-c2nn(-c3ccccc3)cc2C2CC(c3cccs3)=NN2C(=O)CCCC(=O)O)cc1 (stereo unspecified)
  -9	97	-60	109	i	0.82	-0.5
> COc1ccc(Nc2cc(C)c3ccccc3n2)cc1
  -7	101	·	·	i	0.86	·
> Cc1ccc(S(=O)(=O)N2CCCCC2c2cccnc2)c(C)c1C (stereo unspecified)
  ·	91	·	·	i	0.96	·
> COc1ccc(Cc2nnc(NS(=O)(=O)Cc3ccccc3)s2)cc1
  -7	101	·	·	i	0.91	-0.2
> NC(=O)c1c(NC(=O)CCCn2cnc([N+](=O)[O-])n2)sc2c1CCCC2
  -4	86	-18	129	i	0.93	·
> O=C(N/N=C/c1cc(Cl)ccc1O)c1ccc(Br)cc1
  -1	93	·	·	i	0.72	0.2
> Cc1ccc(O)c(CCc2ccc(O)cc2)n1
  -8	106	·	·	i	0.89	·
> Nc1nc(C(F)(F)F)cc(=O)[nH]1
  ·	103	·	·	i	1.2	·
> Cc1c(NC(=O)c2cc(-c3ccc4c(c3)OCO4)on2)c(=O)n(-c2ccccc2)n1C
  -14	98	·	·	i	1	-0.5
> COc1ccc(C(=O)COC(=O)CCn2nnc(-c3cccs3)n2)cc1
  -1	101	-19	74	i	0.84	-0.7
> CC1CCN(C(=S)c2ccc(N(C)C)cc2)CC1
  -1	98	·	·	i	0.97	·
> Cc1cc(C(=O)Nc2ccccn2)no1
  -3	91	-1	137	i	1	-1.6
> COc1cc(/C=C2\SC(N3CCc4ccccc4C3)=NC2=O)cc(OC)c1OC
  -8	127	-60	79	i	0.97	0.5
> CCn1ncc(C2=NOC(C(=O)N3CCN(c4ccccc4)CC3)C2)c1C (stereo unspecified)
  -7	104	·	·	i	1.2	0.5
> COc1ccccc1C1/C(=C(/O)c2ccc(Cl)cc2)C(=O)C(=O)N1CCN1CCOCC1 (stereo unspecified)
  -2	99	16	118	i	0.91	-3.1
> Fc1nc(F)c(F)c(NCCCNc2c(F)c(F)nc(F)c2F)c1F
  1	103	-21	144	i	0.96	·
> O=C(CSc1nnc(-c2ccncc2)n1Cc1ccccc1)Nc1nccs1
  -11	107	-16	104	i	0.84	-0.6
> CCOc1cc(C2NN=C(c3ccccc3)S2)ccc1OCc1ccc(F)cc1 (stereo unspecified)
  -2	106	19	112	i	1	-4.2
> COc1ccc(N(CC(=O)NCc2ccccc2OC)S(=O)(=O)c2ccccc2[N+](=O)[O-])c(OC)c1
  -4	101	·	·	i	0.98	·
> CCn1c2ccccc2c2cc(/C=N/NC(=O)c3ccccc3C)ccc21
  -10	99	·	·	i	0.73	1.7
> NC(=O)c1ccc(NC(=O)COC(=O)c2ccc([N+](=O)[O-])cc2)cc1
  ·	109	·	·	i	0.95	·
> COc1ccccc1Nc1nc(C)c(C(=O)Nc2ccccc2)s1
  1	101	·	·	i	1	·
> COc1ccc(N2CCN(Cc3cc(OC)c(O)c([N+](=O)[O-])c3)CC2)cc1
  -7	104	7	114	i	1.1	1.3
> O=[N+]([O-])c1cccnc1N1CCCCC1
  2	107	20	117	i	0.9	-2.3
> Cc1ccccc1NC(=S)NC(NC(=O)COc1ccccc1)C(Cl)(Cl)Cl (stereo unspecified)
  -5	91	16	62	i	0.92	-1.0
> O=C(c1cc2c(s1)CCCCC2)N1CCN(c2ncccn2)CC1
  4	100	-3	230	i	0.98	-0.2
> Cc1ccc(S(=O)(=O)c2c(COC(=O)c3cccc(Cl)c3)c(-c3ccccc3)nn2C)cc1
  4	100	-44	122	i	0.83	-1.5
> Cn1cccc1/C=N/NC(=O)c1cc(-c2cccs2)nc2ccccc12
  10	97	25	71	i	0.58	-0.8
> COc1ccc(C(C[N+](=O)[O-])n2nc(C)cc2C)cc1 (stereo unspecified)
  -1	90	8	71	i	0.95	5.5*
> C/C(=C1\SC(N2CCOCC2)=NC1=O)c1ccccc1
  -18	106	·	·	i	0.98	-0.4
> Cc1ccc(N2CC(c3nc4ccccc4n3C)CC2=O)cc1 (stereo unspecified)
  ·	88	·	·	i	0.99	·
> COc1cc(CC(=O)Nc2ccccc2N2CCCCC2)cc(OC)c1OC
  6	102	-42	75	i	1	·
> CCOC(=O)C(C(=O)OCC)=C1OC(=O)c2ccccc21
  1	73	·	·	i	0.8	-0.4
> COc1ccc(C2=NN(C(=O)c3cccs3)C(c3ccccc3O)C2)cc1 (stereo unspecified)
  1	107	21	87	i	0.94	·
> O=C1CCC(C(=O)N2CCCC(C(=O)c3ccc4c5c(cccc35)CC4)C2)=NN1 (stereo unspecified)
  -13	104	13	135	i	0.76	·
> N#Cc1c(N)nc(SCC(=O)OCc2ccccc2)c(C#N)c1-c1ccco1
  -3	106	·	·	i	1	-0.5
> CCOC(=O)CC1=NS(=O)(=O)c2ccccc2N1
  1	108	-4	74	i	0.76	-1.5
> COc1ccc(NC2=NC(C)(CO)CS2)cc1 (stereo unspecified)
  ·	103	·	·	i	0.92	·
> COc1ccccc1/C=C/C(=O)NC(=S)N(C)C1CCCCC1
  -11	94	5	77	i	0.85	-0.7
> CCn1c(CCCc2ccc(OC)c(C)c2)n[nH]c1=S
  2	97	·	·	i	1.1	·
> Cc1cc(C)n2nc(C(=O)N/N=C/c3ccccc3Cl)nc2n1
  -3	59	21	99	i	1.1	·
> O=C(CCn1cnc2ccccc21)N/N=C/c1ccc(O)cc1
  6	104	65	107	i	0.86	-1.1
> COc1ccc(Cl)cc1NC(=O)CN1CCCC1
  5	117	0	144	i	1	·
> CCc1cccc(C)c1NC(=O)CNCc1ccccc1
  -1	97	·	·	i	1.1	-1.6
> C=CCOC(=O)/C(=C/c1ccco1)NC(=O)/C=C/c1ccccc1
  5	184	-3	121	i	0.96	-1.9
> O=C(O)c1cccnc1SC1CC(=O)N(CCc2ccccc2)C1=O (stereo unspecified)
  -6	103	17	99	i	1.1	-0.7
> Cc1ccc2nc(/C(C#N)=C\c3ccc([N+](=O)[O-])o3)[nH]c2c1
  -12	78	·	·	·	·	-1.9
> O=C(CCCc1nc2ccccc2s1)NC(c1ccccc1)c1ccccc1
  -1	99	-28	134	i	0.94	-1.0
> O=c1[nH]c(/C(Cl)=C/c2c(F)cccc2Cl)nc2cc(Cl)ccc12
  -9	112	-17	134	i	0.75	0.0
> Clc1ccc(Oc2cccc(/C=N/n3cnnc3)c2)cc1
  0	89	·	·	i	0.82	0.1
> CCCc1cc(=O)[nH]c(SCC(=O)c2cc(C)n(C3CC3)c2C)n1
  -5	100	15	81	i	0.9	-1.5
> CCN(CC)CC(C)CNC(=O)CC(C(=O)N1CCc2ccccc21)n1ccnc1 (stereo unspecified)
  -7	117	9	80	i	1.2	0.1
> CCc1ccccc1NC(=O)/C(=C/c1ccccc1)c1ccccc1
  -3	100	-35	94	i	0.93	0.7
> CCOC(=O)c1ccc2nc(Nc3nc4ccc(F)cc4s3)sc2c1
  -11	103	-72	93	i	0.84	-1.2
> CCCn1nnc(NC(=O)c2ccccc2Br)n1
  -2	105	44	76	i	0.96	0.6
> CN(C(=O)c1cccc(C#N)c1)c1nnc(C2CCOC2)s1 (stereo unspecified)
  -9	100	·	·	i	0.74	-0.8
> COc1ccc(-c2[nH]ncc2CNC(C)c2ccccc2Cl)cc1F (stereo unspecified)
  2	103	·	·	i	1	·

(listing goes on)
Every second line gives: PKD1 kinase inh	RGS16-Gao HTS	Insulin prom inh	Insulin prom inh cell count	HSV augment	HSV augment primary fold	GALR2 agonist
> CC(=O)c1ccc(NC(=O)C(Cc2ccccc2)NC(=O)c2ccco2)cc1 (stereo unspecified)
  6	110	0	127	i	0.9	-1.9
> C/C=C/c1ccc(OCC(=O)OCC)c(OC)c1
  0	104	·	·	i	0.75	·
> CC(C)(C)C(=O)Nc1ccc2oc(-c3cc(F)c(F)cc3Cl)nc2c1
  -6	98	0	148	i	0.88	-0.8
> O=C(O)c1ccccc1NS(=O)(=O)c1ccccc1C(F)(F)F
  -1	87	59	200	i	0.81	-2.2
> Cc1c(Nc2ncnc3nc[nH]c23)c(=O)n(-c2ccccc2)n1C
  0	106	-20	66	i	0.97	-2.2
> COc1cc(C(C)=O)ccc1OCC(O)CN1CCN(S(=O)(=O)c2ccccc2)CC1 (stereo unspecified)
  -6	106	17	84	i	0.92	-1.1
> CCOC(=O)C1=C(C)NC(SCC(=O)O)=NC1c1ccccc1 (stereo unspecified)
  -7	99	-5	133	i	0.91	-0.4
> CN(C(=O)COC(=O)c1ccc2c(c1)NC(=O)CS2)C1CCS(=O)(=O)C1 (stereo unspecified)
  -1	101	-46	140	i	0.92	-3.1
> C/C(=N\NC(=O)c1ccc2c(c1)OCO2)c1ccc(C(=O)O)s1
  2	95	·	·	i	0.97	·
> CCN1CCCC(CO)(Cc2ccccc2)C1 (stereo unspecified)
  -2	89	-36	95	i	0.81	·
> COc1ccc(/C(N)=N/OC(=O)c2cccs2)cc1
  ·	106	·	·	i	1.2	·
> O=C1Nc2ccccc2/C1=N/c1sc2c(c1C(=O)NCCc1ccccc1)CCCC2
  -1	99	·	·	·	·	-1.9
> CCOc1ccc(Nc2nc(Cc3nnc(SCC(N)=O)o3)cs2)cc1
  -3	100	·	·	i	0.85	-0.7
> NS(=O)(=O)c1ccc(NC2(C(=O)O)CCCC2)cc1
  ·	102	·	·	i	1.1	·
> Cc1ccc(-n2ccnc2SCC(=O)O)cc1C
  ·	103	·	·	i	1.1	·
> CCC(=O)NC(=S)Nc1cccc(Cl)c1N1CCCCC1
  -11	91	3	34	i	1	0.0
> COc1ccc2oc(=O)c(C(=O)N3CCN(c4ccccc4C)CC3)cc2c1
  -10	101	-55	111	i	0.89	-3.2
> CCOC(=O)C1(CC2CCCCO2)CCN(Cc2nc(C(C)C)cs2)CC1 (stereo unspecified)
  1	104	-375	68	i	0.85	·
> Cc1sc2nc(C3CC3)nc(NCCNS(=O)(=O)c3ccccc3)c2c1C
  9	101	-17	55	i	0.76	-0.9
> CCCN(CCC)C(=S)NC1CC2C=CC1C2 (stereo unspecified)
  ·	103	·	·	i	1	·

Some of these compounds in order of molar mass, highest first.
Every second line gives: PKD1 kinase inh	RGS16-Gao HTS	Insulin prom inh	Insulin prom inh cell count	HSV augment	HSV augment primary fold	GALR2 agonist
> CC(C)(C)C(=O)Nc1ccc2oc(-c3cc(F)c(F)cc3Cl)nc2c1
  -6	98	0	148	i	0.88	-0.8
> CCOC(=O)C1=C(C)NC(SCC(=O)O)=NC1c1ccccc1 (stereo unspecified)
  -7	99	-5	133	i	0.91	-0.4
> Cc1c(Nc2ncnc3nc[nH]c23)c(=O)n(-c2ccccc2)n1C
  0	106	-20	66	i	0.97	-2.2
> Cc1ccc(-n2ccnc2SCC(=O)O)cc1C
  ·	103	·	·	i	1.1	·

Next section:
Every second line gives: PKD1 kinase inh	RGS16-Gao HTS	Insulin prom inh	Insulin prom inh cell count	HSV augment	HSV augment primary fold	GALR2 agonist
> O=C(c1cccc2ccccc12)N1CCN=C1SCc1ccc([N+](=O)[O-])cc1
  3	104	·	·	i	0.9	0.8
> CCCCC1=CC2=CC(=O)C(C)(OC(=O)CC)C(=O)C2=CN1CC(C)C (stereo unspecified)
  ·	98	·	·	i	0.78	·
> O=C(NCC(=O)N(CC1CCCO1)C(C(=O)NC1CCCC1)c1cccnc1)c1ccco1 (stereo unspecified)
  4	102	·	·	i	1	-0.7
> CCOc1cc(NC(=O)c2ccccn2)c(OCC)cc1NC(=O)c1ccccc1
  -5	103	46	147	i	0.95	·
> Cc1ccc2c(CN3CCOCC3)cc(=O)oc2c1
  ·	99	·	·	i	0.97	·
> COC(=O)CSc1nnc(CNC(=O)c2ccc(OC)cc2OC)n1C
  -4	89	·	·	i	0.91	-1.3
> CCC1=[N+](CC(=O)c2ccc(C)cc2)CCn2c(C)ccc21
  6	106	·	·	i	1.2	0.3
> Cc1ccc(CNc2ncnc3c2cnn3-c2ccccc2)cc1
  -8	102	19	87	i	1	-1.5
> CC(C)Cn1c2c(c(O)c(C(=O)Nc3ccc(F)cc3)c1=O)CCCC2
  -17	105	·	·	i	0.9	-2.8
> Cc1ccc(OCC(O)Cn2nc(C)cc2C)cc1 (stereo unspecified)
  2	126	33	120	i	1	·

High-throughput results from PubChem BioAssay.
